ALR H2O2 inh – human ALR oxidase inhibition via reduced H2O2; P55789; purified ALR, DTT oxidation, H2O2 HRP-luminol luminescence; inhibition, % (test concentration not listed); 290,000 compounds, 3.8% hits; AID 485317;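 active means mean and each replicate at 75% or more; inconclusive means only one of the two met; inactive means neither met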;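 further: stock transfer was 7.5 nL into about 7.5 µL; 0% = neutral wells and 100% = wells with inactivated enzyme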
Target sequence (P55789 whole entry, looked up): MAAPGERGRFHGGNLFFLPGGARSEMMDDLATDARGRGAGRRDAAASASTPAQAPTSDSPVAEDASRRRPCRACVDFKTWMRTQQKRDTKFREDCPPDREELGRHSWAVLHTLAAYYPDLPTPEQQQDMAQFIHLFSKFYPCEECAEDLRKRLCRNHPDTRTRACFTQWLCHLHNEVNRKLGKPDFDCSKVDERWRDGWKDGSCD
A1 inh – inhibitors of the anti-apoptotic protein A1, read as caspase activation; MEF A1-2A-BIM cells, Caspase-Glo 3/7 luminescence, 3 h; percent of clofoctol response, vehicle zero; AID 2462; 330,000 compounds, 0.066% hits; caspase activation, % (concentration not given with the values);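 active means over half of replicate activation scores above 10%, or exactly half above 10 with the replicate mean above 10; inconclusive means replicate mean below 10 yet half the replicates above 10; inactive means over half of replicates below 10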;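 further: wells of about 30 µL received 50 nL stock; many hits fall short of the cut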
Beta apoptosis – beta cell apoptosis inhibition. 300,000 compounds, 0.8% hits. AID 435005. protection from apoptosis, % (no concentration beside the values). INS-1E cytokine-induced death, ATP luminescence, 48 h; percent of positive-control rescue, neutral wells zero;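 active means all replicates at 75% or more, or half of them and the mean; inconclusive means half reach 75% but not the mean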;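 further: 0% = cytokine-treated negative control wells and 100% = positive control rescue; higher means more ATP so stronger rescue from cytokine killing; wells of about 40 µL received 100 nL stock; the first replicate is given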
rRNA inh HTS – inhibits bacterial ribosomal RNA function over humanized ribosomes; GFP signal change (wild-type ribosome), % (test concentration not listed); E. coli WT GFP vs humanized-ribosome RFP mutants, fluorescence, 24 h; stronger effect = lower value; DMSO median 0, no signal -100; 350,000 compounds, 1.6% hits; AID 720706;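 active means significant combined selectivity score with lowered wild-type GFP, culture density cut under 30%, mutant RFP and density less affected; inactive means any of these conditions unmet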; further: one replicate is shown; some compounds called inactive have numbers as strong as hits
T cruzi repl – T. cruzi replication inhibition; T. cruzi beta-gal in NIH3T3, luminescence, 90 h; inhibition, % (no concentration beside the values); 300,000 compounds, 1.4% hits; AID 1885;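 active means mean inhibition across valid replicates above about 55%, limit read from the data; inconclusive means mean below that limit but half or more replicates reach it; inactive means mean below it, under half of replicates reach it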;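 further: signal also drops with host cell toxicity which is not excluded here; 0% = plate median of DMSO wells and 100% = zero luminescence signal; higher percent means less beta-gal luminescence so fewer parasites; stock transfer was 50 nL into about 50 µL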
LANA-H2B inh – blocks KSHV LANA binding to histone H2A/H2B; cell-free LANA-H2A/H2B peptide, fluorescence polarization; AID 2629; 320,000 compounds, 0.6% hits; inhibition, % (concentration not given with the values); in the data active means inhibition mostly above about 10%, no sharp cut-off; inactive means mostly below about 6.7%;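 further: stock transfer was 7.5 nL into about 10 µL; 0% = median of vehicle wells and 100% = median of positive control wells; one replicate is shown; the record names a cut of 25% in any replicate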
Calb FLC – affects C. albicans growth with fluconazole. C. albicans CaCi-2 (fluconazole-resistant clinical isolate) + fluconazole, Alamar Blue growth, 48 h. growth inhibition, % (test concentration not listed). 300,000 compounds, 0.57% hits. AID 1979;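 active means most replicates above 75%; inconclusive means exactly half above 75%; inactive means most below 75%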;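 further: all wells also contain fluconazole at 8 µg/ml as a sub-toxic cotreatment; 0% = median of DMSO wells and 100% = median of geldanamycin control wells; wells of about 8 µL received 7.5 nL stock; the first replicate is given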
Beta2AR agonist – agonists of human beta-2 adrenergic receptor inducing internalization | 340,000 compounds, 0.43% hits | P07550 | response, % (concentration not given with the values) | Am2.2-beta2AR cells, FAP receptor internalization, flow cytometry; reference of the scale not given here;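 active means response above a set limit, near 3 SD of response in nonfluorescent compounds, cut at about 42% in these data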;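 further: stock transfer was 100 nL into about 11 µL; a reference agonist was the positive control; negative values mostly stem from fluorescent compounds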
Target sequence (P07550 whole entry, looked up): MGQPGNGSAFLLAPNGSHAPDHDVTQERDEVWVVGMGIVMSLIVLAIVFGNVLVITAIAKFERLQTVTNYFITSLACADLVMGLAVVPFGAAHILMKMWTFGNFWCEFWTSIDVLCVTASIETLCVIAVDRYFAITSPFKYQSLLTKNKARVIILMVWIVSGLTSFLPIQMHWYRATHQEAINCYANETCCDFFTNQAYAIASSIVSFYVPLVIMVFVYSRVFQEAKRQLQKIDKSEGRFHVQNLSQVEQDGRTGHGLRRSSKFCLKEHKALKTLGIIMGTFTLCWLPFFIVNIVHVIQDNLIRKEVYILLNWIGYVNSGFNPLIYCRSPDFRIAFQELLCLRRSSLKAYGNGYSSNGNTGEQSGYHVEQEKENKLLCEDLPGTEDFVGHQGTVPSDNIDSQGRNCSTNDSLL
rRNA inh HTS OD600 – second read-out of rRNA inh HTS, no call of its own (marks repeat the call); OD600 change, %; measured here: OD600 growth;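 optical density of the mix in the first replicate; 0 = DMSO median and -100 = no signal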
rRNA inh HTS RFP – second read-out of rRNA inh HTS, no call of its own (marks repeat the call); RFP signal change, %; measured here: RFP humanized mutant strains;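 first replicate; 0 = DMSO median and -100 = no signal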
Active calls of the source: *; ? = inconclusive; . = no result given. A portion of the library; count on the stated rates, not on these rows.

Below each compound: ALR H2O2 inh	A1 inh	Beta apoptosis	rRNA inh HTS	rRNA inh HTS OD600	rRNA inh HTS RFP	T cruzi repl	LANA-H2B inh	Calb FLC	Beta2AR agonist
CCN(CC)c1nc(-c2ccc(C(=O)NN)cc2)nc(-c2ccc(C(=O)NN)cc2)n1
    2.5	-0.6	3.6	5.9	-1.8	6.4	-1.6	0.9	1.4	-16.7
O=C(Nc1cccc(C(F)(F)F)c1)c1csc(-c2ccncc2)n1
    -6.2	-0.2	.	-50.6	-68.8	-9.4	12.2	-3.0	0.1	-2.8
COCCn1c(N)c(Sc2ccc(Cl)cc2)c(=O)[nH]c1=O
    -3.3	1.6	-1.0	1.6	1.5	0.7	2.3	10.1	7.6	-8.7
Fc1c(F)c(F)c(SCn2cc(Br)cn2)c(F)c1F
    -0.9	-0.5	-2.2	3.5	5.5	-0.8	.	.	.	-0.6
CCc1cc2ccc(C)cc2nc1SCC(=O)Nc1cc(C)on1
    32.2	0.3	0.0	0.2	0.0	0.3	-15.0	0.9	-7.9	1.1
Cc1sc(-c2cccnc2)nc1OC(=O)C1CC1
    -1.4	0.0	1.1	1.5	12.9	-6.2	-0.1	-37.1	-1.9	2.2
COc1ccc(-n2c(C)cc(/C=C/c3nc(O)c([N+](=O)[O-])c(=O)[nH]3)c2C)cc1
    41.5	0.8	-0.3	4.3	-9.9	5.9	-8.8	-0.2	-32.3	-1.9
CN(C)/C=C1\N=C(c2ccccc2)OC1=O
    2.0	1.7	2.9	5.9	5.9	-0.4	3.8	-4.6	-20.9	4.1
COCCc1nc2ccc(C(=O)N3CCCC(CCCO)C3)cc2o1 (centres undefined)
    -23.7	-0.1	-2.5	2.0	7.4	-1.0	-3.0	11.7*	1.9	-2.8
CC(=O)N(c1c(C)n(C)n(-c2ccccc2)c1=O)C1(C(=O)NC2CCCC2)CCCCC1
    -4.2	0.5	-1.8	.	.	.	-4.2	1.0	8.4	-9.5
CCSc1nnc2c(n1)OC(C)(C)Nc1ccccc1-2
    0.2	0.7	-6.0	-0.9	-6.3	-2.8	-2.2	-0.6	1.1	-0.4
Cc1cc(C)cc(N2C(=O)CN(Cc3ccccc3)C2=S)c1
    13.1	0.5	-2.5	-11.9	-7.6	0.1	4.1	-1.5	-2.6	-4.9
CC(Oc1ccc(Cl)cc1)/C(N)=N/O (centres undefined)
    -10.0	0.1	-7.3	8.6	13.7	0.2	-5.0	-1.5	0.2	-0.2
CC(=O)N(CCc1ccccc1C)Cc1cc2cc3c(cc2[nH]c1=O)OCO3
    -7.3	-3.6	-6.3	.	.	.	8.4	0.1	30.4	9.5
O=C(CO/N=C/c1cccc([N+](=O)[O-])c1)NC1CCCCCC1
    -2.2	-0.6	1.7	.	.	.	0.5	-5.5	-6.1	-1.0
CC(=O)NS(=O)(=O)c1ccc(NC(=O)CSc2ccccc2)cc1
    -0.8	-1.0	-6.4	5.5	1.3	-7.5	-5.9	-4.6	1.8	-2.7
CCS(=O)(=O)n1nc(-c2ccco2)nc1N
    -5.0	-0.1	-4.3	12.3	11.2	1.5	-11.8	1.1	-0.4	-3.7
CCCCNc1nc2ccccc2nc1NS(=O)(=O)c1ccc(F)cc1
    3.1	-0.6	6.8	2.2	-5.1	1.1	2.4	-1.1	33.9	-2.2
CCOc1ccc(CNC(=O)C(=O)c2cn(CC(=O)N3CCOCC3)c3ccccc23)cc1OC
    -1.8	0.0	-5.6	1.8	11.3	2.4	-6.5	-0.8	-9.5	6.7
COc1ccc(CNc2nc3ccccc3n2Cc2ccc(Cl)cc2)cc1OC
    5.1	0.7	6.3	-55.0	-76.0	-20.6	-21.4	-1.4	20.5	14.6
CCCS(=O)(=O)c1c(S(=O)(=O)CCC)c2c(C(N)=O)cccn2c1C(=O)c1ccc(F)cc1
    .	-0.1	-3.5	-4.1	-4.9	-6.7	6.1	0.2	14.2	-11.2
COc1ccc(OC)c(N(CC(=O)Nc2ccccc2)S(C)(=O)=O)c1
    -6.3	-0.3	-5.1	2.1	0.9	-1.8	-17.8	3.5	-2.3	7.3
COc1cccc(CN2CC(C(=O)N3CCCCCCC3)CCC2=O)c1 (centres undefined)
    -4.0	-0.7	-7.5	-6.6	1.6	0.3	15.1	-0.9	-1.7	0.0
CNC(=O)/C(C#N)=C/c1ccc(-c2nc3ccccc3s2)o1
    .	-4.8	-7.3	14.5	11.5	0.6	2.6	11.7	16.6	-2.1
CCN1CCCC1CNC(=O)c1csc2c1CCCC2 (centres undefined)
    -11.1	0.4	-1.9	4.0	0.4	4.1	19.6	0.7	15.2	-1.0
O=C(Nc1nnc(-c2cccs2)o1)c1cccc(Oc2ccccc2)c1
    .	-1.6	0.2	-53.0	-79.8	-16.5	.	3.8	.	4.5
CCOC(=O)C1(Cc2cccc(Cl)c2)CCCN(C(=O)c2ccc(COC)s2)C1 (centres undefined)
    -6.4	0.4	?	-33.2	-38.4	-4.0	7.1	-0.8	0.9	-1.6
CC(=O)Nc1ccc(OCCC[n+]2ccccc2)cc1
    -5.9	1.3	-4.9	3.5	6.1	1.2	-0.1	0.7	-10.4	3.5
COc1nccnc1NS(=O)(=O)c1ccc(NC(=S)NC(=O)/C=C/c2ccc(F)cc2)cc1
    14.1	0.3	-7.8	-13.4	-25.8	-2.6	-7.0	-5.1	3.6	5.0
CCOCCCn1c(=S)[nH]c2cc(C(=O)NC3CCCCC3C)ccc2c1=O (centres undefined)
    -4.6	-1.5	2.1	-1.6	8.7	-4.2	-2.2	4.5	-5.5	5.5
O=C(CN1CCOCC1)Nc1cccc(Cl)c1Cl
    -28.1	0.7	-4.0	.	.	.	5.1	-4.4	-7.8	-13.0
CC1CN(C(=O)N2c3ccccc3Sc3ccccc32)C(C)CC1=O (centres undefined)
    67.7	-0.6	2.5	.	.	.	20.4	-0.2	0.2	-3.6
COc1ccc(Cl)cc1NC(=O)COC(=O)Cc1cc(OC)c(OC)c(OC)c1
    -2.0	1.4	5.7	-12.6	-42.0	-3.4	.	-4.3	.	4.1
COC(=O)c1cccc(OCC(O)Cn2cnc3cc(C)c(C)cc32)c1 (centres undefined)
    -13.6	0.2	0.4	.	.	.	-4.4	0.2	-18.1	23.2
COc1ccc(CC(=O)NC(C)c2nnc(SCC(=O)Nc3ccccc3F)n2C)cc1 (centres undefined)
    9.3	-0.1	1.4	2.5	-3.3	1.2	-7.6	-1.2	-0.2	10.9
COc1ccc(OCCSc2nc(C)c(Cc3ccccc3)c(=O)[nH]2)cc1
    -2.0	0.1	-3.5	16.1	22.1	0.4	3.0	1.4	-1.4	0.7
COC(=O)c1ccccc1NC(=O)NCc1ccncc1
    -6.4	1.0	-1.3	15.8	13.5	1.8	-25.8	34.8*	8.2	-11.1
O=S(=O)(Nc1ccc(Cl)cn1)c1ccccc1
    -3.2	1.1	-2.1	-1.7	5.2	-2.7	-10.8	9.2	4.6	0.1
Cc1occc1-c1n[nH]c(=S)n1C
    1.9	0.4	-6.2	4.2	12.4	-3.3	-10.4	-3.9	-2.6	-4.7
O=c1[nH]c(O)c(/C=C2\C=Nc3ccc(Br)cc32)[nH]1
    65.2	-1.2	-4.8	-0.8	-1.0	-8.9	-11.6	0.2	-7.2	0.5
O=C(OCC(=O)N1CCc2ccccc2C1)c1ccc(O)cc1
    -4.6	0.5	-0.8	-17.5	-12.9	-3.1	.	-2.6	.	8.3
CC(=O)Nc1ccc(C(=O)OCc2ccc(Br)cc2)cc1
    -4.3	0.4	-6.1	-25.1	-22.2	3.1	15.4	-2.1	-4.6	0.2
Cc1sc(NC(=O)CSc2nnc(C)c(=O)[nH]2)c(C#N)c1C
    98.4*	0.3	.	.	.	.	-8.2	8.2	-4.4	2.4
CC(C)n1nc(C(=O)Nc2cccc(S(=O)(=O)N3CCOCC3)c2)c2ccccc2c1=O
    -24.1	-1.0	1.6	-5.0	-6.4	2.0	.	-1.9	.	6.9
COc1ccc(CN(Cc2cccnc2)S(=O)(=O)c2ccc(-n3cnnn3)c(OC)c2)cc1
    .	0.2	-6.8	-14.9	-11.9	2.7	31.7	2.5	5.5	3.9
CC#CCOC(=O)c1c(C)nc2sc3c(c2c1N)CCC(O)C3 (centres undefined)
    -10.7	0.8	4.5	9.7	8.0	1.5	.	-11.0	.	12.1
CCc1ccc(S(=O)(=O)NCCc2csc(-c3cccnc3)n2)s1
    -6.2	-0.5	-9.9	-2.3	-20.6	-0.5	14.2	-1.3	-2.4	-9.6
CC(C)c1ccc(CN(C(=O)/C=C/c2ccco2)C2CCS(=O)(=O)C2)cc1 (centres undefined)
    24.6	-0.3	-3.7	4.9	6.6	-2.7	7.5	-1.9	11.6	-4.8
OCCN1CCN(c2nc(-c3ccccc3)c3cc(Br)ccc3n2)CC1
    -5.0	0.2	-3.4	-2.0	-9.8	0.2	45.3	-4.6	-14.9	10.8
CCN(CC)S(=O)(=O)c1ccc(C(=O)NCc2ccc3c(c2)cc(C)n3C)cc1
    -16.2	0.8	-8.0	1.5	5.8	8.0	11.5	2.9	6.3	18.5
COc1cc(C(=O)NCC(=O)OCC(=O)c2ccc[nH]2)cc(OC)c1OC
    -22.3	0.6	-2.7	.	.	.	1.9	3.0	-1.8	-4.7
O=C(CSc1nnc(-c2cccs2)o1)OCc1ccccc1
    -16.8	0.0	-11.2	-7.3	-8.6	-0.1	-23.9	-1.3	-4.5	1.3
COc1ccc(S(=O)(=O)N2CCCCC2)cc1NC(=O)CN1C(=O)NC(C)(C2CC2)C1=O (centres undefined)
    .	2.0	-4.3	1.4	3.4	-3.5	.	3.1	.	-1.8
Cc1cc2c(cc1S(=O)(=O)CCC(=O)Nc1cccc(C(F)(F)F)c1)OCC(=O)N2
    9.9	0.2	-7.9	5.0	14.0	0.5	-19.6	-2.9	3.0	3.6
Cc1n[nH]c(=O)c2c(NC(=O)CSc3nnc(-c4ccco4)n3C)oc(C)c12
    .	0.5	-7.1	2.9	10.0	-1.8	.	92.4*	.	-7.6
CC(=O)OCC(=O)[C@@]1(OC(C)=O)[C@@H](C)C[C@H]2[C@@H]3C[C@H](F)C4=CC(=O)C=C[C@]4(C)[C@@]3(F)[C@@H](O)C[C@@]21C
    -0.5	0.2	-12.5	.	.	.	12.0	5.0	-22.7	-1.3
CCSc1nnc(NC(=O)Cn2cnc3ccccc3c2=O)s1
    -6.5	0.4	-3.5	0.8	8.2	-2.9	-0.9	-2.3	4.7	-0.4
Cc1ccc(NC(=O)C2CCCN2S(=O)(=O)c2cccc3cccnc23)cc1F (centres undefined)
    40.8	-1.2	.	-6.9	-1.6	-0.2	-1.3	-0.6	-13.7	6.6
